# LT uptake inh: qHTS Assay for Anthrax Lethal Toxin Internalization; Cells, anthrax lethal toxin internalization, FRET ratio (460/530); hit rate 0.67% among 70,000; Potency, µM (titrated, usually from 40 µM), for the others: at the highest dose activity change, negative = inhibition, most hits filed as inhibitors; active = well fitted falling ratio curve with the 530 nm signal flat; inconclusive = other ratio curves, or a change in one channel alone; inactive = flat curves in the ratio and both channels; the % refers to the ratio; also: % is scaled to controls: 0 for no effect and ±100 for the full control effect; nearly all actives have a fitted effect of over 50% in size; tested in ME-180 cells; beta-lactamase reporter
# Prx2 Sm inh: Schistosoma Mansoni Peroxiredoxins (Prx2); S. mansoni Prx2 activity coupled to TGR/GSH (TGR is thioredoxin glutathione reductase), NADPH fluorescence loss, qHTS; some inactives read as strong as hits; Potency, µM; hit rate 0.07% among 65,000; AID 448, 2006; active means full or partial inhibition curve with a strong effect at the top dose; inconclusive means weaker partial or single-point curve; inactive means no accepted curve; also: series up to 57 µM; many of its hits are not listed in these tables
#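 Purified S. mansoni TGR and Prx2 in pH 7.4 phosphate buffer with EDTA and Tween-20 were preincubated with compounds for 15 min. Further NADPH/GSH was added, then a 2.5 mM H2O2 aliquot initiated turnover, followed kinetically by NADPH fluorescence.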
# Starred values were filed as active, the others as inactive; u = inconclusive; x = not tested or not shown; & = joins results of further samples; [ ] = another dose, or the depositor's remark. Potency is read from the fitted curve at half-maximal effect. Not all compounds are listed, so the mix of outcomes need not match the whole.
SMILES,LT uptake inh,Prx2 Sm inh
COC(=O)C1=C(C)N(Cc2ccccc2)C2=C3C(=O)N(c4ccccc4)C(=O)C3[C@@](O)(C(=O)OC)C(=O)N2C1c1ccccc1 (some centres undefined),-8%&-8%[8 µM],x
Cc1ccc(Cn2nnc3c(=O)n(CC(=O)NCc4ccc5c(c4)OCO5)cnc32)cc1,-21%,>57
CCC(C)Sc1nnc(-c2c[nH]c3ccccc23)n1CCOC (centres undefined),2%,>57
COc1cc2c(cc1OC)CN(S(C)(=O)=O)CC2,5%,>57
CCN1CCN(C(=O)c2ccccc2N(C)S(=O)(=O)c2ccc(C)cc2)CC1,10%,>57
CCn1c(=O)cc(SCC(=O)N2CCOCC2)c2ccccc21,3%,>57
O=C(CN1C2=NCCCN2c2ccccc21)c1ccc2c(c1)OCO2,0%,>57
CC(=O)N(C)c1ccc(OCC(O)CN(Cc2ccco2)S(=O)(=O)c2ccc(C)cc2)cc1 (centres undefined),-4%,>57
COc1cccc(Cn2c(=O)c(C)nc3cnc(Oc4ccccc4)nc32)c1,u,>57
CCc1ccc(C2CC(c3ccc(Cl)cc3)n3nc(N)nc3N2)cc1 (centres undefined),3%,>57
N[C@@H](Cc1ccccc1)c1nnc2sc(SCc3ccccc3)nn12,11%,>57
CN1CCc2c(sc3c2c(NCc2ccco2)nc2nnnn23)C1,u,>57

# Structural class, the entries above containing an aryl thioether with sulfur outside any ring
SMILES,LT uptake inh,Prx2 Sm inh
CCC(C)Sc1nnc(-c2c[nH]c3ccccc23)n1CCOC (centres undefined),2%,>57
CCn1c(=O)cc(SCC(=O)N2CCOCC2)c2ccccc21,3%,>57
N[C@@H](Cc1ccccc1)c1nnc2sc(SCc3ccccc3)nn12,11%,>57

# Going on with the list.
SMILES,LT uptake inh,Prx2 Sm inh
CCOC(=O)c1cnc(-c2ccccc2)nc1N,5%,>57
Cc1ccc(-c2nsc3c(N4CCN(C(=O)c5ccco5)CC4)ncnc23)cc1,-3%,>57
COCc1[nH]nc2c1C(c1ccccc1F)C(C#N)=C(N)O2 (centres undefined),3%,>57
COc1ccccc1C(=O)NC(CCSC)C(=O)OCC(=O)NC(=O)NCc1ccco1 (centres undefined),8%,>57
Cn1nnc2cc(C(=O)NCc3ccc4c(c3)OCO4)ccc21,-4%,>57
CCOC(=O)c1c(NC(=O)Cn2c(=O)oc3ccccc32)oc(C)c1C(C)=O,-11%,>57
O=S(=O)(c1ccc(F)c2ccccc12)N1CCCCC1,-16%,>57
O=C1C(=O)N(CCOCCO)C(c2ccccn2)/C1=C(\O)c1ccccc1 (centres undefined),4%,>57
O=c1cc(CF)[nH]c(=S)[nH]1,-10%[8 µM],>57
O=S(=O)(Nc1ccc2nc(-c3ccc(Br)o3)[nH]c2c1)c1ccccc1,x,>57
O=S(=O)(c1cccc(C(F)(F)F)c1)N(CCCN1CCOCC1)Cc1cccs1,-15%,>57
Cn1c(=O)c2c(nc(N3CCN(c4ccccc4)CC3)n2CCCc2ccccc2)n(C)c1=O,u,>57
O=C(Cn1c(=O)oc2cc(S(=O)(=O)N3CCCC3)ccc21)Nc1cccc(C(F)(F)F)c1,-13%,>57
C(=Nc1cnc2ccccc2c1)c1ccc2ccccc2n1,-2%[8 µM],>57
Nc1nonc1C(=O)OCC(=O)N1CCOCC1,-10%,>57
CCCn1c(=N)n(CC(=O)OCC)c2ccccc21,22%,>57
COC(=O)c1sccc1NC(=O)C1CC=CCC1C(=O)O (centres undefined),3%,>57
C(#CC1C=CC2OC(c3ccccc3)OCC2O1)c1ccccc1 (centres undefined),-4%[8 µM],x
COC(=O)c1ccc(N2C(=O)c3ccc(OC)c(OC)c3C2=O)cc1,12%,>57
COc1ccc(-n2c(SCC(=O)OC(C)C)nnc2-c2ccccn2)cc1,0%,>57
O=C(CN1CCCCCC1)OCCN=C1NS(=O)(=O)c2ccccc21,-1%,>57
O=S(=O)(NCc1cn2ccsc2n1)c1cccs1,-6%,>57
Cc1ccc2c(c1)c1c3n2CC(=C2C(=O)OC(C)(C)OC2=O)NC3CCC1 (centres undefined),u,>57
CN(C)c1cccc(O)c1,-2%,x
COc1ccc(S(=O)(=O)N(C)c2ccc(OCC(=O)Nc3cc(C)on3)cc2)cc1,0%,>57
C=CCOc1c(CNc2nccs2)cccc1OCC,3%,>57
CC(C)Oc1ccc(-c2nn(-c3ccccc3)cc2/C=c2\sc3ncnn3c2=O)cc1,5%,>57
c1csc(CNc2ncncc2-c2ccoc2)c1,-4%,>57
O=C(O)CC(c1ccc(Cl)cc1)n1cccc1 (centres undefined),-3%,>57
CC(=O)C(C)Oc1ccc2c3c(c(=O)oc2c1)CCCCC3 (centres undefined),-6%,>57
Cc1cc(C)nc(NC2=NCCN2C(=O)Nc2ccc(Cl)c(Cl)c2)n1,-16%,>57
O=C(NCC(c1cccnc1)N1CCN(c2ccccc2)CC1)C1CCCCC1 (centres undefined),5%,>57
COC(=O)c1cc(/C=C/c2ccccc2)on1,2%,>57
N=c1n(CCO)c2ccccc2n1CCOc1ccc(Cl)cc1Cl,u,>57
CN(c1ccccc1C(=O)Nc1ccc(S(=O)(=O)N2CCCCC2)cc1)S(C)(=O)=O,9%,>57
C=CCC(=O)OCC(=O)Nc1ccc(Oc2ccccc2)cc1,u,u

# 5 entries from above, bar-delimited:
mol | LT uptake inh | Prx2 Sm inh
c1csc(CNc2ncncc2-c2ccoc2)c1 | -4% | >57
O=C(O)CC(c1ccc(Cl)cc1)n1cccc1 (centres undefined) | -3% | >57
CC(=O)C(C)Oc1ccc2c3c(c(=O)oc2c1)CCCCC3 (centres undefined) | -6% | >57
Cc1cc(C)nc(NC2=NCCN2C(=O)Nc2ccc(Cl)c(Cl)c2)n1 | -16% | >57
O=C(NCC(c1cccnc1)N1CCN(c2ccccc2)CC1)C1CCCCC1 (centres undefined) | 5% | >57

# Going on with the list.
SMILES,LT uptake inh,Prx2 Sm inh
Cc1c(Cl)cccc1N(CC(=O)N1CCCCCC1)S(C)(=O)=O,9%,>57
O=C(COc1ccccc1)N1CCN(Cc2c[nH]c3ccccc23)CC1,-10%,>57
CCOC(=O)C(C)C1(O)c2ccccc2-c2ncccc21 (centres undefined),5%,>57
CC(NC(=O)Cc1ccsc1)c1ccc(S(N)(=O)=O)cc1 (centres undefined),0%,>57
COCCn1c(=N)c(C(=O)NCc2ccco2)cc2c(=O)n3ccccc3nc21,u,>57
COc1cccc(-n2c(Cc3cc(=O)[nH]c(=O)[nH]3)nnc2SCC(=O)N2CCCC2)c1,1%,>57
O=C(O)CCC(=O)c1ccc2c(c1)OCCO2,4%,>57
Cn1nnc2cc(NC(=O)N3CCN(c4ccccn4)CC3)ccc21,u,>57
COCCCNC(=O)c1ccc(N2CCCC2)c(NS(=O)(=O)c2ccc(C)cc2)c1,x,>57
CC(=O)Nc1sc2c(c1C(=O)N1CCOCC1)CCCCC2,1%,>57
O=c1n(-c2ccccc2)c(=O)n2n1CCC2,-6%,>57
C[N+](C)(C)CCN(Cc1cccs1)c1ccccn1,-10%[8 µM],>57
CCCC(c1nnnn1CC(=O)OCC)N(Cc1cc2ccc(C)cc2[nH]c1=O)C1CCCC1 (centres undefined),1%,>57
c1ccc(CCN2CCCCCC2)nc1,11%[8 µM],>57
COC(=O)Nc1nnc(-c2ccccc2Cl)s1,6%,>57
COC(=O)C1=C(C)N(CC2CCCO2)C(=O)C1 (centres undefined),0%,x
Cn1cnc([N+](=O)[O-])c1SCC(=O)O,-9%[8 µM],>57
CC(=O)N1CCC[C@@]2(CCN(Cc3ccccc3)C2)C1,u,>57
Cc1ccc(-n2ncc3c(=O)[nH]c(SCC(=O)N4CCC(C)CC4)nc32)cc1C,-4%,>57
O=c1cc(CSc2nnc(-c3ccco3)o2)c2ccccc2[nH]1,-9%,>57
COc1cccc(-n2ccnc2SCC(=O)Nc2nccs2)c1,5%,>57
Cc1cc(NC(=O)C(C)C)ncc1NC(=O)CCc1ccccc1,6%,>57
CC1CCCN(S(=O)(=O)c2ccc(C(=O)Nc3nnc(-c4ccccc4Cl)o3)cc2)C1 (centres undefined),6%,>57
O=C(Nc1cnn(Cc2ccc(F)cc2)c1)c1cc(-c2ccc(Br)cc2)on1,-8%,>57
Cc1cc(NC(=O)CCC(=O)N(c2ccc(F)cc2)C2(C(=O)NC3CCCCC3)CCCC2)no1,u,>57
COCCn1c(=O)cnc2cnc(Nc3cccc(OC)c3)nc21,u,>57
NC(=O)COc1c(-c2ccccc2)oc2ccccc2c1=O,-5%,>57
CCCCC[C@H](O)C=C[C@H]1[C@H](O)CC(=O)[C@H]1CCCCCCC(=O)O,u,>57
CN(C)c1cccc(C(=O)NC2CCCCCC2)c1,-21%,>57
COc1cc2nc(COc3ccc(C#N)cc3)n(CC#N)c(=O)c2cc1OC,-4%,>57
C=CCn1c(C)c(C(C)=O)c(SC)nc1=S,3%,>57
COC(=O)C1=C(N)Oc2cc(C)n(CCN3CCOCC3)c(=O)c2C1c1cccnc1 (centres undefined),-12%,>57
CCOC(=O)C1CCCN(C(=O)CCCn2nc(C)n3c(cc4sccc43)c2=O)C1 (centres undefined),-1%,>57
COc1ccc(Oc2ncc3nc(-c4ccccc4)c(=O)n(CCC#N)c3n2)cc1,u,>57
CCOC(=O)CSc1nnc(Cn2c(=O)sc3ccccc32)n1-c1ccccc1C,-6%,>57
CC(NC(=O)CCC(=O)NC(C)C1COc2ccccc2O1)C1COc2ccccc2O1 (centres undefined),-7%,>57
COCCn1c(=O)c(-c2ccc(OC)cc2)nc2cnc(Oc3ccc(OC)cc3)nc21,u,>57
Cc1ccc(CCNC(=O)C2CCCN(S(=O)(=O)c3c(C)nn(C)c3C)C2)cc1 (centres undefined),-1%,>57
Cc1nc2ccccc2c(=O)n1NC(=O)c1ccccc1Cl,3%,>57
COC(=O)c1cc(OC)c(OC)cc1NC(=O)Cn1nnc(-c2ccccc2Cl)n1,-13%,>57
O=C(OCC#CCSc1nnc(-c2cccc3ccccc23)o1)c1cccs1,-23%,x
NC(=O)c1cc(S(=O)(=O)NC2CCCCC2)co1,10%,>57
O=C(CC1SCCNC1=O)Nc1cccc(Cl)c1 (centres undefined),x,>57
CCOc1nc(-c2ccccc2)ccc1-c1noc(-c2ccncc2)n1,-3%,>57
CN1CCN(C(=O)c2cn(C)c3ccc(S(=O)(=O)N(C)C4CCCCC4)cc3c2=O)CC1,-23%,>57
COc1ccc(CCNC(=O)CSCc2n[nH]c(=O)[nH]2)cc1OC,8%,>57
Cc1ccc(C)c(NS(=O)(=O)c2ccc(NC(=O)c3ccco3)cc2)c1,u,>57
C=CCn1c(SCc2ccccc2)nnc1-c1cccnc1,x,>57
CC(=O)Nc1ccc(NC(=O)c2ccccc2F)cc1,-23%,x
Cc1cc(=O)[nH]c(Nc2ccc(C(=O)OC(C)C)cc2)n1,1%,>57
COc1ccc(NCc2nnc(SCC(=O)c3ccc(OC)cc3)n2C)cc1,4%,>57
Cc1ccc(Nc2nc(N)nc(CC#N)n2)cc1,u,>57
O=C(CN1C(=O)C2(OCCCO2)c2ccccc21)NCc1ccccc1,-9%,>57
COC(=O)N1CCC2(CC1)CCN(c1ccccc1)CC2,7%,>11
COc1ccc(NC(=O)Cn2c(C)cc(=O)c3cccc(OC)c32)cc1,-6%,>57
Cc1ccc2c(C)cccc2c1,-4%,x
O=C(O)CC(C(=O)O)n1nc(-c2ccccc2)cc1-c1ccccc1 (centres undefined),11%,>57
COc1cccc(Cn2c(=O)c(-c3cccs3)nc3cnc(N(C)C)nc32)c1,u,>57
O=C(NCc1ccccn1)c1n[nH]c2ccccc12,5%,>57
O=C(C1CCC(CNc2c(N3CCCCC3)c(=O)c2=O)CC1)N1CCN(c2ccccn2)CC1 (centres undefined),-1%,>57

# Entries of single compounds, quoted from the list. Order of screens: LT uptake inh, Prx2 Sm inh
# C=CCC(=O)OCC(=O)Nc1ccc(Oc2ccccc2)cc1 is listed with u, u
# O=C(CN1C2=NCCCN2c2ccccc21)c1ccc2c(c1)OCO2 is listed with 0%, >57

# 3 structures out of the list, sorted by molecular weight, lowest first.
SMILES,LT uptake inh,Prx2 Sm inh
Cc1cc(=O)[nH]c(Nc2ccc(C(=O)OC(C)C)cc2)n1,1%,>57
COc1ccc(NC(=O)Cn2c(C)cc(=O)c3cccc(OC)c32)cc1,-6%,>57
COc1ccc(NCc2nnc(SCC(=O)c3ccc(OC)cc3)n2C)cc1,4%,>57

# Continuation.
SMILES,LT uptake inh,Prx2 Sm inh
CCOc1ccccc1N(CC(=O)OC)S(=O)(=O)c1ccccc1,-4%,x
O=C(NC1CCCCC1)c1cc2nc3c(c(C(F)(F)F)n2n1)CCCC3,-15%,>57
COc1ccccc1NC(=O)c1ccc(Cl)c(S(=O)(=O)N2CCOCC2)c1,u,x
COc1ccc(OC)c(CCNC(=O)CC2Oc3ccc(C)cc3NC2=O)c1 (centres undefined),-8%,>57
COc1ccc(CN2CCC(C(=O)N3CCN(c4ccccc4F)CC3)CC2)cc1OC,3%,x
COc1ccc(CNc2ccnc(-c3ccc4c(c3)OCO4)n2)c(OC)c1,u,>57
CCC(C)NCC(O)COCc1ccc(Cl)cc1 (centres undefined),u,>57
CNS(=O)(=O)c1ccccc1C(=N)c1ccccc1,3%[8 µM],>57

# Source: PubChem BioAssay (National Center for Advancing Translational Sciences (NCATS))
